# Source: PubChem BioAssay
# Mtb MbtI inh – inhibitors of Mycobacterium tuberculosis siderophore enzyme MbtI. 100,000 tested, 0.89% active. purified MbtI enzyme, fluorescence intensity read-out. inhibition, %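 (about 17 µg/mL by stock and volumes)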. P9WFX0;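 active means above 50% in both replicates, above 80% if mildly self-fluorescent; inactive means the rest, strongly fluorescent compounds included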;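 further: 0% = mean of negative and 100% = mean of positive controls; one replicate is shown; some compounds called inactive have numbers as strong as hits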
# Target sequence (P9WFX0 whole entry, looked up): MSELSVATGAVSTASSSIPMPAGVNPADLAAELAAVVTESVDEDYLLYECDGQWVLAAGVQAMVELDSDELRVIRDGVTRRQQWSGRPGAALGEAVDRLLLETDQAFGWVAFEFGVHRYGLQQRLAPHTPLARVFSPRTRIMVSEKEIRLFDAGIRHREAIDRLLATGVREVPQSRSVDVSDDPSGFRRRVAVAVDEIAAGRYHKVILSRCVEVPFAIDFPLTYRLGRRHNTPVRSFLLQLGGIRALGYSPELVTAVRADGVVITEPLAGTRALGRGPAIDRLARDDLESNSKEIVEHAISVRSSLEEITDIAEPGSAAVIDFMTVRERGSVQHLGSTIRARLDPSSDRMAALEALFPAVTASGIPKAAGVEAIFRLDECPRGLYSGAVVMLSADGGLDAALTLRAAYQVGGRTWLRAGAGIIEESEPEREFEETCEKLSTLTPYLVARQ
# The depositor's hits bear a star.
SMILES,Mtb MbtI inh
CC[C@]12C=CCN3CCC4(c5cc(Br)c(OC)cc5N(C)C4[C@@](O)(C(=O)OC)[C@@H]1OC(C)=O)C32 (stereo partly specified),-2
Cc1ccccc1CN1CCN(c2ccccn2)CC1,-2
O=C(O)c1ccc2c(c1)N=C(Cl)c1ccccc1S2,-6
c1ccc(CC2CNc3ccccc3CN2)cc1 (stereo unspecified),-16
COc1ccc(NC(=O)CSC2=NC(=O)CC(C)=N2)cc1,-14
CCC(C)C(NCc1cccc(Br)c1)C(=O)O (stereo unspecified),-8
COc1ccc(/C(N)=N/O)cc1O,-9
CCOc1ccc(NC(=O)CC2CC(C)(C)OC2=O)cc1 (stereo unspecified),-6
COC(=O)Nc1ncc(CN2CCCC2)s1,-7
O=C(O)C1CCC(CNCc2cccnc2)CC1 (stereo unspecified),1
NC(=O)C(Cc1ccccc1)NC(=O)Cc1ccc(F)cc1 (stereo unspecified),-5
CC(=O)N(Cc1ccccc1)c1ccc(C(=O)O)cc1,-6
CCOC(=O)C(C#N)C1(Cc2ccccc2)CCOC(C)(C)C1 (stereo unspecified),-10
COc1ccccc1CNC(=O)c1ccc2c(c1)N(Cc1ccc(F)cc1Cl)C(=O)CS2,-13
O=C(NCc1ccc(F)cc1)c1cc2c(s1)CN(C1CCCCCC1)C2,21
c1ccc(-c2csc3c4ncnc-4ncn23)cc1,-2
CSc1ccc(C(=O)O)s1,0
O=C1CC(CCC(=O)NC2CC2)c2ccccc2N1 (stereo unspecified),-11
COc1c(F)c(F)c(C(=O)O)c(Nc2ccccc2)c1F,-2
O=C(CCc1ccccc1)NCCCN1CCOCC1,-1
Cn1c(C(=O)O)c(CC(=O)Nc2cnc3ccccc3c2)c2ccccc21,3
CCOC(=O)c1c2n(c3ccc(OC(C)=O)cc13)CCC2,-2
CCc1nc2c(sc(=S)n2-c2ccccc2)c(=O)[nH]1,13
COc1ccccc1-n1cnc(N)c1C(=O)c1ccccc1,4
CCOC(=O)/C(N=O)=C(\O)C1CCN(C(=O)OCC)CC1,-14
COc1ccccc1CNC(=O)C(NC(=O)C1CCCCC1)C(C)C (stereo unspecified),-10
Cc1cc2ncn(S(=O)(=O)N(C)C)c2cc1C,3
O=C(CCS(=O)(=O)c1cccc2nsnc12)NC(c1ccccc1)c1ccccc1,6
COC(=O)c1ccc(-c2ncc(-c3ccc(N(C)C)cc3)o2)cc1,-1
O=c1c(Cl)c(N2CCOCC2)cnn1-c1ccccc1,-6
O=C(NCC1COc2ccccc2O1)c1ccco1 (stereo unspecified),-8
OC(Cn1ccnc1)c1ccccc1 (stereo unspecified),-3
CCC(=O)Nc1nonc1-c1nc2ccccc2n1CCC(C)C,-52
Cn1c(=O)c2sccc2n2c(CCCC(=O)NCc3ccc(F)cc3)nnc12,-16
CCc1ccccc1NC(=O)Cc1ccc(-n2cccc2)cc1,-8
Clc1ccc(N2CCCC3CCCCC32)nn1 (stereo unspecified),-11
Cc1nnc(SCc2ccc(C(=O)O)cc2)s1,-1
O=C(O)CNc1ccc(Cl)cc1C(=O)c1ccccc1,1
O=C(O)CC(C(=O)Nc1ccccc1I)C1CCCO1 (stereo unspecified),-1
O=C(O)CCC(=O)Nc1cccc(C(=O)Nc2cccc(Cl)c2)c1,-2
CC(=O)NC(c1ccccc1)c1c(O)ccc2ccccc12 (stereo unspecified),-111
Cc1cc(=O)n2[nH]cc(-c3ccccc3)c2n1,-108
CC1=CC(C)C(COC(=O)CN2CCCC2)C(C)C1 (stereo unspecified),-6
Cn1cnc2c1c(=O)n(Cc1ccccc1)c(=O)n2C,-18
COC(=O)c1ccc(COc2cccc(OC)c2)o1,-5

# Already shown: 2 of the compounds above.
SMILES,Mtb MbtI inh
Cn1cnc2c1c(=O)n(Cc1ccccc1)c(=O)n2C,-18
COC(=O)c1ccc(COc2cccc(OC)c2)o1,-5

# The list goes on:
SMILES,Mtb MbtI inh
c1ccc(C2Nc3ccccc3C3OCCC23)cc1 (stereo unspecified),-7
COC(=O)CN1C(=O)C(OC(C)=O)S(=O)c2ccccc21 (stereo unspecified),4
CCCC1C(=O)CC(C#N)(C#N)C(C#N)(C#N)C1c1ccccc1 (stereo unspecified),-10
Nc1ccccc1C(=O)N1CCCC1,-3
CS(=O)(=O)N(Cc1ccccc1)c1ccccn1,-5
COc1ccc(OC(C)C(=O)Nc2ccc3c(c2)OCO3)cc1 (stereo unspecified),-7
CCN(CC)C(=O)c1ccc2nc(NC(=O)c3ccc(OC(C)=O)cc3)sc2c1,0
OCc1ccc(N2CCCC2)cc1F,-9
Cc1ccc(NC(=O)C23C(=O)Oc4ccccc4C2C3(C)C(=O)c2ccccc2)cc1 (stereo unspecified),0
Cc1nc2ccc(Oc3ccc4nc(C)[nH]c4c3)cc2[nH]1,0
O=C(Nc1ccc2nn(-c3ccccc3)nc2c1)c1cccnc1,-14
CC(C)CN(CC(C)C)S(=O)(=O)c1ccc(C(=O)Nc2nnc(-c3cccs3)o2)cc1,4
O=C(NC1CC1)C1C2C=CC3(CN(Cc4ccccc4Cl)C(=O)C13)O2 (stereo unspecified),-11
Cc1ccc2nc(Cc3ccc(N)cc3)oc2c1,-19
CC(Oc1ccc(F)cc1)C(=O)NCCN1CCOCC1 (stereo unspecified),-15
COc1cc(Cl)ccc1S(=O)(=O)N1CCCN(S(=O)(=O)c2ccc(Cl)cc2OC)CC1,-18
Cc1nc2cc(NCc3ccccc3O)ccc2n1Cc1ccccc1,-4
O=C(O)CCc1nc2ccccc2oc1=O,3
O=C(CCOc1ccccc1)NCCc1nc2ccccc2[nH]1,-6
O=C(O)C1CCCCC1C(=O)N(Cc1ccccc1)Cc1ccccc1 (stereo unspecified),2
CCc1ccc2nc(N3CCC(C(=O)NCC4COc5ccccc5O4)CC3)sc2c1 (stereo unspecified),-7
Cc1ccc(S(=O)(=O)CCN2CCC(O)(c3ccccc3)CC2)cc1,-7
COc1ccc(C(=O)NCc2ccco2)c(OC)c1,-15
CCOC(=O)c1ccc(COc2nc3ccccc3nc2-c2ccccc2NC(C)=O)cc1,0
CC1CN(Cc2cc(O)c(CN3CC(C)OC(C)C3)cc2O)CC(C)O1 (stereo unspecified),27
O=C(O)c1n[nH]c2c1CCCC2,-4
CC(C)C(C(=O)O)N1C(=O)CSC1=S (stereo unspecified),0
CC(C)CNC(=O)c1cc(S(=O)(=O)N2CCCC2)c(Cl)cc1N1CCCC1,-6
CCOC(=O)c1c(C)nc(-c2ccccc2)nc1N,4
CC(C)CCNC(=O)c1cc2c(=O)oc3ccccc3c2s1,-6
CN1CC2(C(=O)c3ccccc3)CN(C)CC(C(=O)c3ccccc3)(C1)C2,-14
c1ccc(OCCN2CCN(c3ccccc3)CC2)cc1,-2
c1ccc(C2CNCCO2)cc1 (stereo unspecified),-11
CN1C(=O)OC(C)(CCc2ccccc2)C1(C)O (stereo unspecified),-5
O=C(Nc1ccc(Cl)cc1)OC1CS(=O)(=O)CC1N1CCCC1 (stereo unspecified),-4
COc1ccccc1CNC(=O)CCS(=O)(=O)c1cccc2nonc12,-7
CS(=O)(=O)N(Cc1ccco1)CC(O)Cn1c2ccccc2c2ccccc21 (stereo unspecified),-7
CCn1c(SCC(=O)OC)nc2c1c(=O)n(C)c(=O)n2C,3
O=C(O)c1ccccc1S(=O)CCO (stereo unspecified),-3
CCCC(=O)Nc1c(O)c2ccccc2[nH]c1=O,-22
Cc1ccc(-c2ccccc2)n1-c1cccnc1,48
COC(=O)C1C(=O)C=C(Nc2ccc(F)cc2F)CC1c1ccc(OC)cc1 (stereo unspecified),1
O=C(O)c1cccc(C(=O)c2cccc(C(=O)O)c2)c1,-16
O=C(NCCC1=CCCCC1)c1n[nH]c(=O)c2ccccc12,38
CC1(C)C=C(c2ccc(O)cc2)CC(C)(C)N1,-9
O=C1c2ccccc2C(=O)N1CCc1c[nH]c2ccc(O)cc12,2
N#CCCS(=O)(=O)c1ccc(Cc2ccc(S(=O)(=O)CCC#N)cc2)cc1,-2
COc1cccc(C2Sc3ccccc3NC3=C2C(=O)c2ccccc23)c1OC (stereo unspecified),-15
CCC(=O)Nc1nonc1-c1nc2ccccc2[nH]1,20
OCCSc1nnc(Nc2ccccc2)s1,3
Cc1ccc(NC(=O)CSc2nc3ccccc3c(=O)n2CCCC(=O)N2CCCC2)cc1,-8
CC(=O)N(c1ccccc1)C1SC(=O)N(c2ccccc2)C1=O (stereo unspecified),-3
Cc1n[nH]c(C)c1-c1c(C)n[nH]c1C,-6
O=C(O)CCCN1Cc2ccccc2C1,-2
COC(=O)c1c(F)c(F)c(NCCO)c(F)c1F,5
c1ccc(-n2ncnc2-c2ccc3c(c2)OCO3)cc1,-8
CCC1(CC)CC(=O)C=NC1=O,11
O=C(c1ccc(F)cc1)c1coc2ccc(O)cc12,2
CCc1ccc(Nc2nc3cc(OC)ccc3cc2C#N)cc1,42
COc1ccc2[nH]cc(CCC(=O)O)c2c1,-49
# Next section.
SMILES,Mtb MbtI inh
NC1CCN(Cc2ccccc2)CC1,6
O=c1c2cc(NC(=S)Nc3cccc(C(F)(F)F)c3)ccc2nc2n1CCCCC2,0
O=C(Oc1ccccc1)Oc1ccc2sc(=O)oc2c1,2
COC(=O)c1c[nH]n2c(=O)cc(CCl)nc12,13
NCc1cnc2c(c1)CCC2,1
Cc1ccc(-n2nnc3c(=O)oc4ccccc4c32)cc1,-10
CN(C)Cc1c(O)ccc2c(=O)c(-c3ccccc3Cl)coc12,-36
CC(Oc1cc(Cl)ccc1Cl)C(=O)N1CCc2ccccc21 (stereo unspecified),13
CCOc1ccccc1CNC(C)(C)CO,-3
COc1ccc(C(=O)N=C2NC(=O)C(C)S2)cc1 (stereo unspecified),-12
COC(=O)c1ccc2c(c1)N(Cc1ccc(C)cc1)C(=O)C(OC(C)=O)S2=O (stereo unspecified),-5
N#Cc1c(Cl)nsc1-c1ccccc1,21
CCCCn1c(=NC(=O)C(C)Oc2ccccc2)c(C(=O)OCC)cc2c(=O)n3ccccc3nc21 (stereo unspecified),44
COc1ccc(C2CC3(C)CC(=O)C2C(C#N)(C#N)C3(C#N)C#N)cc1 (stereo unspecified),10
Cc1ccc(S(=O)(=O)N2CCCOC2)cc1,-14
Cc1oc(-c2ccc3c(c2)OCCO3)cc1C(=O)NCC(=O)O,19
CN(C)CCNC(=O)c1ccc(S(=O)(=O)N2CCCCC2)cc1,-9
CCCCn1c(CCCO)nc2ccccc21,-2
CCC(c1ccccc1)c1nnc(N)s1 (stereo unspecified),0
CCN(C(=O)c1coc(=O)c2ccccc12)c1cc(OC)ccc1OC,-3
CCCc1cc(-c2[nH]ncc2-c2ccc3c(c2)OCCCO3)c(O)cc1O,12
Cc1ccc(O)c(C(CC(=O)NC2CCCCC2)c2ccccc2)c1 (stereo unspecified),-3
Cc1cc2c(c(SCc3ccccc3Cl)n1)C(=O)OC2,-3
Cc1nc(-c2ccccc2)nc2[nH]c(C(C)C)cc(=O)c12,3
Cc1ccc(NC(=O)C2(N3C(=O)CC3c3ccco3)CCCCC2)cc1 (stereo unspecified),-3
COC(=O)c1ccccc1SN,-10
c1nc2ccc(Oc3ccc4nc[nH]c4c3)cc2[nH]1,-7
COc1csc2nc(C)cc(C)c12,-1
O=C(C(c1ccccc1)c1ccccc1)N1CCOCC1,-5
CC(Cc1c[nH]c2ccccc12)Nc1ccc2ccccc2n1 (stereo unspecified),49
O=C(CCCCl)N1CCCC1=O,1
COc1ccccc1NC(=O)CSC1=NC(c2ccccc2)CC(=O)N1 (stereo unspecified),15
O=C(O)c1cccn1Cc1ccccc1Cl,-1
COc1cc2c(cc1OC)-c1nc3ccccc3c(=O)n1C(C)(C)C2,-8
COC(=O)CN(c1c(C)cccc1C)S(C)(=O)=O,-1
Cc1ccc(OCC(=O)N2CCc3ccccc3C2)c(Br)c1,-12
O=C1OC2(C(=O)c3ccccc3C2=O)/C(=C(\O)c2ccc(Br)cc2)C1=O,38
CN(C(=O)Cc1c[nH]c2ccccc12)C(C(=O)Nc1ccc2c(c1)OCO2)c1ccccc1 (stereo unspecified),1
CC(=O)N1c2ccccc2N(Cc2ccc(C)cc2C)C(=O)C1(C)C,-7
COc1ccc2c(c1)c(CC(=O)OCC(=O)N1CCOCC1)c(C)n2C(=O)c1ccc(Cl)cc1,-3
CC1CCN(S(C)(=O)=O)CC1,-4
Cc1cc(C)n2nc(C(=O)N3CCOCC3)nc2n1,-10
CSCCC1C(C#N)=C(N)Oc2n[nH]c(-c3cccs3)c21 (stereo unspecified),-3
Cc1ccc(C)c(N(C)C(=O)CCS(=O)(=O)c2cccc3nonc23)c1,1

# Structures from the list above with four or more nitrogen atoms, in the order listed:
SMILES,Mtb MbtI inh
c1ccc(-c2csc3c4ncnc-4ncn23)cc1,-2
CCC(=O)Nc1nonc1-c1nc2ccccc2n1CCC(C)C,-52
Cn1c(=O)c2sccc2n2c(CCCC(=O)NCc3ccc(F)cc3)nnc12,-16
Cn1cnc2c1c(=O)n(Cc1ccccc1)c(=O)n2C,-18
CCCC1C(=O)CC(C#N)(C#N)C(C#N)(C#N)C1c1ccccc1 (stereo unspecified),-10
Cc1nc2ccc(Oc3ccc4nc(C)[nH]c4c3)cc2[nH]1,0
O=C(Nc1ccc2nn(-c3ccccc3)nc2c1)c1cccnc1,-14
CC(C)CN(CC(C)C)S(=O)(=O)c1ccc(C(=O)Nc2nnc(-c3cccs3)o2)cc1,4
CCn1c(SCC(=O)OC)nc2c1c(=O)n(C)c(=O)n2C,3
CCC(=O)Nc1nonc1-c1nc2ccccc2[nH]1,20
Cc1ccc(NC(=O)CSc2nc3ccccc3c(=O)n2CCCC(=O)N2CCCC2)cc1,-8
Cc1n[nH]c(C)c1-c1c(C)n[nH]c1C,-6
O=c1c2cc(NC(=S)Nc3cccc(C(F)(F)F)c3)ccc2nc2n1CCCCC2,0
CCCCn1c(=NC(=O)C(C)Oc2ccccc2)c(C(=O)OCC)cc2c(=O)n3ccccc3nc21 (stereo unspecified),44
COc1ccc(C2CC3(C)CC(=O)C2C(C#N)(C#N)C3(C#N)C#N)cc1 (stereo unspecified),10
c1nc2ccc(Oc3ccc4nc[nH]c4c3)cc2[nH]1,-7
Cc1cc(C)n2nc(C(=O)N3CCOCC3)nc2n1,-10
CSCCC1C(C#N)=C(N)Oc2n[nH]c(-c3cccs3)c21 (stereo unspecified),-3

# The list is partial; rates above refer to the full screens.
